Source: PubChem
KAT2A inh: qHTS Assay for Inhibitors of GCN5L2; AID 504327, 2011; Potency, µM (series often up to 58.9 µM), for the others: top-dose activity change, negative = inhibition, hits mostly inhibitors; Histone acetyltransferase KAT2A (Homo sapiens), Q92830; GCN5L2 HAT assay, ThioGlo1 CoA-SH fluorescence; 0.21% of 390,000 active
Target sequence (Q92830 whole entry, looked up): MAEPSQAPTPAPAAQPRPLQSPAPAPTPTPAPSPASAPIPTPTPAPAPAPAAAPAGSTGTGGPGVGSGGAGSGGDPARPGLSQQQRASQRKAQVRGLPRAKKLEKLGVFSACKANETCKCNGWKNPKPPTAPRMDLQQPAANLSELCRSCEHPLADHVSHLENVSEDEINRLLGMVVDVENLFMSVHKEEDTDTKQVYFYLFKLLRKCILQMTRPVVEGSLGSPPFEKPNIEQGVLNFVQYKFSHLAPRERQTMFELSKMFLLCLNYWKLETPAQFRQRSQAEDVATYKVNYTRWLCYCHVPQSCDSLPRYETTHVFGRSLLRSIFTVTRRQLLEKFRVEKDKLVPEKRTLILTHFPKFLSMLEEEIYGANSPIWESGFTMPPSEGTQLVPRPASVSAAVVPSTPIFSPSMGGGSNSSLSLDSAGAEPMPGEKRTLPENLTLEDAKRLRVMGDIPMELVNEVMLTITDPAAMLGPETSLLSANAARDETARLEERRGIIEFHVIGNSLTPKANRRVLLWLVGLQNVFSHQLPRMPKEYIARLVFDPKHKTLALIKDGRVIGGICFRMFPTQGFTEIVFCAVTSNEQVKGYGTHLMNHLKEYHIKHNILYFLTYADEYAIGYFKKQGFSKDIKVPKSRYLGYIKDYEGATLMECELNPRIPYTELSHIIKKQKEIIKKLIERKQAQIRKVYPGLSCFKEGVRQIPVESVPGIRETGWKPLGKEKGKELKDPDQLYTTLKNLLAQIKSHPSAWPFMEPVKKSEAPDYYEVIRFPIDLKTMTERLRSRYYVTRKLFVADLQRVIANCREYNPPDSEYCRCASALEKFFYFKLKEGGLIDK
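Compounds, pin-transferred from DMSO stocks, meet 20nM GCN5L2 for 15 min before the reaction begins with H3(1-25) peptide (75uM) and acetyl-CoA (70uM). Thiol-reactive ThioGlo1 reports CoA release over 20 min at room temperature.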
FEN1 inh: qHTS Assay for the Inhibitors of Human Flap endonuclease 1 (FEN1) | Recombinant FEN1 flap cleavage, fluorescence, 15 min | 0.35% of 390,000 active | Potency, µM (highest dose often 114 µM), inactives show at the highest dose activity change, negative = inhibition, usual class: inhibitors; also: nearly all actives have a fitted effect of over 65% in size
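Compounds are tested as a concentration series against 10 nM FEN1; after a 15 min room-temperature preincubation, 50 nM substrate starts cleavage, with plate reads at 0 and 15 min. Normalized responses are fitted by a Hill equation.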
An asterisk follows results filed as active; ? = inconclusive; & = joins results of further samples. Calls follow the shape of the dose curve; as a rule, active = well fitted curve in the direction sought with a large enough effect; inconclusive = small, poorly fitted or top-dose-only effect, or another doubt; inactive = no such curve, though single readings can be large; an effect the other way counts as inactive or inconclusive. % is scaled to controls: 0 for no effect and ±100 for the full control effect; potency is read from the fitted curve at half-maximal effect. Not all compounds are listed, and most or all hits are left out here.

SMILES | KAT2A inh | FEN1 inh
CC(=O)Nc1c2c(nn1-c1cccc(Cl)c1)CS(=O)(=O)C2 | 1% | 0%
O=C(NNc1cc(C(F)(F)F)ccc1Cl)c1ccc(=O)[nH]c1 | -21% | -10%
CCOC(=O)c1sc(NC(=O)CSc2nnnn2-c2ccc(C)cc2)c(C(=O)OCC)c1C | 0% | -10%
Cc1ccccc1C(=O)N1N=C(c2cccc(NS(C)(=O)=O)c2)CC1c1cccs1 (configuration not stated) | -16% | 7%
COc1ccc(N(C(C)=O)S(=O)(=O)c2cccc3cccnc23)cc1 | 0% | -13%
COc1cccc(C(=O)Nc2nc(-c3ccncc3)cs2)c1 | -2% | -6%
CCn1c(O)c(N=NC(=O)CNC(=O)/C=C/c2ccccc2)c2ccccc21 | -1% | -17%
COC(=O)Cc1c(C(=O)OC)nnn1-c1cccc(C(F)(F)F)c1 | 10% | -1%
CCCCCCCC1CC(=O)C=C(C)C1C(=O)OCC (configuration not stated) | 1% | -20%
Cc1ccc(NC(=O)CSc2nc(N)c3c4c(sc3n2)CSC(C)(C)C4)cc1 | -12% | -1%
CCCCOC(=O)Cn1c(=O)c2c(nc3n2CCCCN3c2ccc(C)cc2)n(C)c1=O | -11% | -1%
CCOC(=O)COc1ccc2c(c1)C(=O)CC1(CCN(C(C)=O)CC1)O2 | -13% | -9%
CC(O)[C@H]1CNC(=O)C(=O)N1CC1(c2ccccc2)CC1 (some centres not stated) | -2% | -1%
Cc1ncoc1C(=O)Nc1ccccc1-c1ccccc1 | -9% | -14%
COC(=O)N1C(=O)[C@](c2ccccc2)(C2CCCC2)N1C(=O)OC | 3% | -19%
CCOC(=O)NC1(C(F)(F)F)C(=O)NC(C)=C1C#N (configuration not stated) | -4% | -5%
O=C(CN1C(=O)NC2(CCc3ccccc32)C1=O)c1ccc(F)cc1 (configuration not stated) | -9% | 7%
CC1CC(C)CN(S(=O)(=O)c2cc(C(=O)O)c(Cl)s2)C1 (configuration not stated) | 0% | 5%
CCOCCCNC(=O)C1CCCN1C(=O)NC1CCCCC1 (configuration not stated) | -4% | -2%
COc1ccc(C(=O)NCCC(C)C)cc1S(=O)(=O)N1CCOCC1 | -10% | -1%
O=C(O)CN1C(=O)/C(=C/c2cccc(Cl)c2)Oc2ccccc21 | -11% | -16%
CSCCC(NC(=O)c1ccccc1Cl)C(=O)NCCOc1ccccc1 (configuration not stated) | 0% | 1%
O=C(O)CN1C(c2ccccc2)=Nc2ccc(Br)cc2C1c1ccccc1 (configuration not stated) | 1% | 6%
O=C(Nc1ccc(S(=O)(=O)N2CCN(Cc3ccccc3)CC2)cc1)c1cnccn1 | -4% | -10%
Clc1ccc(-c2nnc(COc3ncnc4sccc34)o2)cc1 | -5% | -10%
COc1ccc(/C=N/N2CCN(c3ccc(Cl)cc3)CC2)cc1 | -6% | 5%
CN(Cc1cnccn1)C(=O)c1cc(COc2cccc(C(F)(F)F)c2)on1 | -3% | -6%
CCC1CN(C(=O)N2CCC(C(=O)NCc3ccc(C)o3)CC2)c2cc(C)ccc2O1 (configuration not stated) | 2%&-8% | -3%&10%
Cc1ccc2cc(CN(C)C(=O)C3CCCO3)c(=O)[nH]c2c1 (configuration not stated) | 3% | 7%
COc1cc2c(cc1OC)C(c1ccc(C)o1)CC(=O)N2 (configuration not stated) | -9% | 11%
O=C1CC(c2ccccc2)CC(O)=C1C=NCCN1CCOCC1 (configuration not stated) | -1% | -14%
CC(=O)N1CCc2c(sc(NC(=O)c3ccc4c(c3)OCCO4)c2C#N)C1 | -5% | -13%
O=C(Cc1cccs1)Nc1ccccc1F | 20% | 8%
CC(=O)Nc1ccc(S(=O)(=O)N2CCN(C(=O)c3ncoc3-c3ccc(C)cc3)CC2)cc1 | -4% | 1%
O=C1CC(N2CCN(Cc3ccc(Cl)cc3)CC2)C(=O)N1CCc1ccccc1 (configuration not stated) | -5% | -13%
Cc1c(O)ccc(NS(=O)(=O)c2ccccc2)c1C | -6% | -3%
O=C(Nc1cccc2[nH]ncc12)c1ccc(F)cc1 | 10% | -18%
O=C(Nc1ccccc1[N+](=O)[O-])c1nc[nH]c1C(=O)NCCO | -7% | -1%
CN(C(=O)CC1C(=O)NCCN1Cc1ccc(F)cc1)C1CCOCC1 (configuration not stated) | 3% | 8%
O=C(O)c1cc2ncc(CCO)cn2n1 | -1% | -2%
CCN(CCCNC(=O)CCCN1C(=O)COc2ccc(C)cc21)c1cccc(C)c1 | -15% | -14%
COc1ccc(CCOC(=O)c2ccc(NC(=O)CC#N)cc2)cc1 | ? | -15%
CCN(CC(=O)Nc1ccccc1OC)C(=O)CCOc1ccc(C(C)(C)C)cc1 | -12% | -17%
Cc1nc2ccc(NC(=O)Cc3ccc4c(c3)OCCO4)cc2s1 | 16% | -3%
C/C(=N\Nc1ccc(C(F)(F)F)cc1[N+](=O)[O-])C1CC1 | -2% | -4%
CC1(C)CC(=O)C2=C(C1)OC(N)=C(C#N)C2c1ccoc1 (configuration not stated) | -3% | 2%
Cc1[nH]nc2c1C1(C(=O)Nc3ccc([N+](=O)[O-])cc31)C(C#N)=C(N)O2 (configuration not stated) | -10% | 8%
CCOc1ccc(CN2CCN(Cc3cccn3-c3ncccn3)CC2CCO)cc1 (configuration not stated) | -9% | -2%
Cc1ccc(S(=O)(=O)N2CCN(C(=O)CC3CCCC3)CC2)cc1 | -17% | -5%
C=CCNC(=S)/C(=C(/[O-])c1ccccc1Br)[n+]1ccccc1 | -4% | 2%
CCOc1ccc(CCNC(=O)COC(=O)COc2ccc(Br)cc2)cc1OCC | -7% | 2%
CC(=O)NCc1ccc(-c2csc(N)n2)s1 | -4% | -18%
Cc1nc(-c2ccc(S(=O)(=O)NCc3ccccn3)s2)cs1 | -2% | -3%
COc1ccc(-c2nc(CS(=O)(=O)CC(=O)NCc3cccc(Br)c3)c(C)o2)cc1 | -23% | -11%
COc1ccccc1NC(=O)COC(=O)c1cnccn1 | 6% | -11%
Cc1ccc([C@@H]2[C@@H]3C(=O)N(C)C(=O)[C@@H]3[C@]3(C)C(=O)N(Cc4ccccc4)CC(=O)N23)o1 | -1% | 13%
COc1ccc(S(=O)(=O)N2CCCCCC2)cc1C(=O)N(CC(C)C)C1CCS(=O)(=O)C1 (configuration not stated) | 1% | -4%
CCC(=O)Nc1ccc(NC(=S)Nc2ccccc2)cc1 | 0% | 3%
COc1cc(/C=N/Nc2nc(C)cc(C)n2)cc(OC)c1OC | ? | 1%
COCCCn1c(SCC(=O)Nc2oc(C)c3c(C)n[nH]c(=O)c23)nc2sc3c(c2c1=O)CCC3 | -3% | -8%

Random excerpt: 6 entries already listed
SMILES | KAT2A inh | FEN1 inh
O=C(O)c1cc2ncc(CCO)cn2n1 | -1% | -2%
CC(=O)Nc1ccc(S(=O)(=O)N2CCN(C(=O)c3ncoc3-c3ccc(C)cc3)CC2)cc1 | -4% | 1%
O=C(Cc1cccs1)Nc1ccccc1F | 20% | 8%
COc1cc2c(cc1OC)C(c1ccc(C)o1)CC(=O)N2 (configuration not stated) | -9% | 11%
CCOc1ccc(CCNC(=O)COC(=O)COc2ccc(Br)cc2)cc1OCC | -7% | 2%
CCOCCCNC(=O)C1CCCN1C(=O)NC1CCCCC1 (configuration not stated) | -4% | -2%

One compound at a time, as listed above. Values in the order: KAT2A inh	FEN1 inh
CCOc1ccc(CCNC(=O)COC(=O)COc2ccc(Br)cc2)cc1OCC is listed as -7%	2%
O=C(Nc1ccccc1[N+](=O)[O-])c1nc[nH]c1C(=O)NCCO is listed as -7%	-1%
C/C(=N\Nc1ccc(C(F)(F)F)cc1[N+](=O)[O-])C1CC1 is listed as -2%	-4%

(list continues)
SMILES | KAT2A inh | FEN1 inh
CCc1nc(C)cn1S(=O)(=O)c1cc(C)c(OC)cc1C | 3% | -2%
Cc1ccc(S(=O)(=O)N(CC(=O)O)Cc2ccccc2F)cc1 | 0% | -2%
Cc1cccn2c(=O)c3cc(C(=O)N4CCOCC4)n(C)c3nc12 | -29% | 12%
CC(=O)Nc1ccc(S(=O)(=O)N[C@@H](C)C(=O)OCC(=O)NC2CCCC2)cc1 | -2% | 19%
